MLL AF4-AF9 inh: inhibitors of AF4 peptide binding to AF9, primary screen, biochemical, AlphaScreen, biotin-AF4 peptide, FLAG-AF9, single point. inhibition, % at 10 µM. hit rate 0.47% among 350,000;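 active means every replicate reaching a set inhibition limit, whatever the replicate mean, cut at about 25% in these data; inconclusive means mean inhibition reaches that limit but some replicates miss it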;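 further: 0% = plate neutral control median and 100% = total signal loss; the record names both 10 and 1 µM as test concentration; the first replicate is given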
Target sequence (P42568 whole entry, looked up): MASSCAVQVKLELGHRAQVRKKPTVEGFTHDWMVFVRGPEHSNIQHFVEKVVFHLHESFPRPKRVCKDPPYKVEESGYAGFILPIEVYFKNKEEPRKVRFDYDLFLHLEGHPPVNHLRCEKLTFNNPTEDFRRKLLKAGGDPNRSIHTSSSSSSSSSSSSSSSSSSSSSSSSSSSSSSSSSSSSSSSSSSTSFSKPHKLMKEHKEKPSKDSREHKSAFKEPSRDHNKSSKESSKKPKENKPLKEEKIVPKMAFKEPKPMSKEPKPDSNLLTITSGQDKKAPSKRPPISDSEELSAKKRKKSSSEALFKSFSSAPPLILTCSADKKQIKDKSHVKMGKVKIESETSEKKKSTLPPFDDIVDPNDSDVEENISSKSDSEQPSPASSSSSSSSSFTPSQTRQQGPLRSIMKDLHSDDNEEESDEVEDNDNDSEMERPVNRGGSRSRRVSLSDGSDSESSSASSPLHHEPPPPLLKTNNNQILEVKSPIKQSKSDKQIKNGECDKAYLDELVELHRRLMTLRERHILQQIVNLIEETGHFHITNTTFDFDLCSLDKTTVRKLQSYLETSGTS
Beta cell apopt: inhibitors of cytokine-induced beta cell apoptosis, primary screen, luminescence. INS-1E cytokine-induced death, ATP luminescence, 48 h; percent of positive-control rescue, neutral wells zero. protection from apoptosis, % (concentration not given with the values). hit rate 0.8% among 300,000. AID 435005, 2010;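 active means all replicates at 75% or more, or half of them and the mean; inconclusive means half reach 75% but not the mean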;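 further: 0% = cytokine-treated negative control wells and 100% = positive control rescue; higher means more ATP so stronger rescue from cytokine killing; wells of about 40 µL received 100 nL stock; the first replicate is given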
A1 inh: caspase 3/7 activation in MEF A1-2A-BIM cells, primary screen, A1 inhibitor project, cell-based, luminescence, HTS; hit rate 0.066% among 330,000; caspase activation, % (concentration not given with the values); Caspase-Glo 3/7 luminescence, 3 h; percent of clofoctol response, vehicle zero;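 active means over half of replicate activation scores above 10%, or exactly half above 10 with the replicate mean above 10; inconclusive means replicate mean below 10 yet half the replicates above 10; inactive means over half of replicates below 10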;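 further: wells of about 30 µL received 50 nL stock; many hits fall short of the cut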
Numbers without * were called inactive; ? = inconclusive. These rows are one share of the data (hit frequency here may not be typical).

SMILES | MLL AF4-AF9 inh | Beta cell apopt | A1 inh
N#C/C(=C\c1ccc(O)c(O)c1)C(=O)N1CCc2ccccc21 | 3.6 | 0 | 0.5
COc1ccccc1CC(=O)Nc1ccc(S(=O)(=O)N(C)C2CCN(C)CC2)cc1 | 2.7 | 0 | 0.4
Cc1cc2c(cc1S(N)(=O)=O)S(=O)(=O)CCC2 | -6.5 | 3 | 0.3
C[C@H](NC(=O)c1ccc(Cl)cc1)C(=O)OCn1nnc2ccccc2c1=O | -0.9 | 4 | -0.6
CC[N+](CC)(CC(=O)Nc1c(C)cccc1C)Cc1ccccc1 | -5.2 | -1 | 0.1
CC[N+]1(C)[C@@H]2CC[C@H]1CC(OC(=O)[C@H]1CCC(C(=O)OC3C[C@H]4CC[C@@H](C3)[N+]4(C)CC)(c3ccccc3)c3ccccc31)C2 (some centres not stated) | 2.9 | 6 | -0.1
O=C(c1cc(-c2cccc3ccccc23)nc2ccccc12)N1CCN(CCO)CC1 | 2.2 | -4 | -0.6
CCOC(=O)[C@H]1[C@H]2COc3ccccc3[C@@H]2N2C(=O)c3cc(Br)ccc3NC(=O)[C@@]12C | 1.0 | 0 | 0.0
NS(=O)(=O)c1cccc2c1c([N+](=O)[O-])cc1nc(O)c(O)nc12 | 1.4 | 0 | 0.4
Cc1ccc(C)c(C(=O)CN2C(=O)C(=O)N(C3CCCC3)C2=O)c1 | -2.1 | -5 | 0.6
O=C(COC(=O)c1ccco1)NCc1ccc(Cl)cc1Cl | -2.6 | -1 | 0.0
Fc1cccc(CN(C2=NCCN2)c2c(Cl)cccc2Cl)c1 | 1.4 | -1 | 0.0
CC(C)c1ccc(NC(=O)COC(=O)c2ccc(CN3CCCC3=O)cc2)cc1 | -1.0 | 3 | -0.1
O=C(COC(=O)COc1ccc(Cl)cc1)NC1CCCC1 | -0.7 | 5 | 0.3
CCc1sc(C(=O)Nc2ccc3nc(C)sc3c2)cc1C | -5.5 | 3 | -0.9
CCCCCC(CC(=O)NO)C(=O)NC(C(=O)N1CCCC1CO)C(C)C (configuration not stated) | -4.4 | -5 | 0.2
C[C@H](CCC(=O)O)[C@H]1CC[C@H]2[C@@H]3CC[C@@H]4C[C@H](O)CC[C@]4(C)[C@H]3CC[C@]12C | 0.2 | 2 | -0.1
CN(Cc1ccccc1)S(=O)(=O)c1ccc(NC(=O)C2CCCCC2C(=O)O)cc1 (configuration not stated) | -2.1 | 1 | -0.2
COc1ccc(S(=O)(=O)N2CCc3ccccc32)cc1C(=O)NCC(c1ccco1)N1CCCC1 (configuration not stated) | -1.5 | 0 | 0.7
O=C(O)c1cc(S(=O)(=O)N2CCCCC2)ccc1N1CCOCC1 | -0.4 | -6 | 0.0
CCCCN1CCC(COC(=O)c2cc(Cl)c(N)c3c2OCCO3)CC1 | -2.0 | 0 | -0.4
COc1ccccc1C(=O)NC(CCSC)C(=O)NC1CC1 (configuration not stated) | 0.8 | -4 | 0.2
COC(=O)c1cc(O)cc(OC)c1Oc1cc(C)cc(O)c1C(=O)O | -6.0 | 89* | -1.0
NCc1ccccc1 | -0.3 | -9 | -0.2
Cc1ccc(NC(=O)C(c2ccccc2)N2CCN(CC(=O)N3CCOCC3)CC2)cc1 (configuration not stated) | -0.9 | -2 | -0.6
CC1(C)NC(=O)N(c2ccc([N+](=O)[O-])c(C(F)(F)F)c2)C1=O | -1.2 | -4 | -0.2
O=C(COC(=O)c1ccc([N+](=O)[O-])o1)NCCCc1ccccc1 | -0.2 | 2 | 0.6
NC(=O)CNCCC(c1ccccc1)c1ccccc1 | -0.3 | -2 | 0.4
CNCCC=C1c2ccccc2C=Cc2ccccc21 | 9.9 | 4 | 0.0
O=C(COC(=O)c1cc(S(=O)(=O)N2CCOCC2)ccc1O)Nc1ccc2c(c1)OCO2 | 0.9 | -3 | -0.2
C[C@@H](CN1CCC(Cc2ccccc2)CC1)[C@@H](O)c1ccc(O)cc1 | -23 | -3 | 3.1
COc1ccccc1C(=O)Nc1ccc(OCC(=O)N2CC(C)CC(C)C2)cc1 (configuration not stated) | -2.0 | 3 | 0.2
CCCCCCSc1ccc([C@@H]2[C@H]3C(=O)N(CC)C(=O)[C@H]3[C@]3(C(=O)OC)CCCCN23)cc1 | 2.2 | 2 | 1.4
O=C(COC(=O)c1ccc2ncsc2c1)NCc1cccc(Cl)c1 | 0.1 | -4 | -0.1
O=C(C1=C(O)C(=O)N(c2nc3ccc(Cl)cc3s2)C1c1ccco1)c1ccco1 (configuration not stated) | 2.8 | -4 | -0.3
COc1ccccc1C(=O)NCC(=O)N1CCN(c2ncccn2)CC1 | -0.4 | -4 | -0.2
COc1cc(=O)n(C)c2c(OCC(O)C(C)(C)O)cccc12 (configuration not stated) | -2.5 | 3 | 0.0
N#C/C(=C\c1ccc(O)c(O)c1)C(=O)Nc1ccccc1 | 5.4 | -6 | -1.9
CC1CCN(C(=O)COC(=O)/C=C/c2ccc(Br)o2)CC1 | -0.1 | -3 | 0.5
COc1cccc(CCC(=O)Nc2cccc(S(=O)(=O)N3CCCC3)c2)c1OC | -2.1 | -1 | 1.2
CCn1c(Cc2ccccc2)nnc1SCC(=O)c1c(N)n(C2CC2)c(=O)[nH]c1=O | -7.8 | -4 | -0.1
Cc1cccc(C2CN(C)CCc3c2cc(O)c(O)c3Cl)c1 (configuration not stated) | 4.3 | 8 | 0.9
CN1CC[C@]2(CCN3CCc4c(oc5ccccc45)[C@@H]3C2)N(C)C1=O | -0.8 | -5 | 0.4
CC(=O)c1ccc(S(=O)(=O)NCCC(=O)NCCc2c[nH]c3ccccc23)cc1 | -0.2 | -3 | -1.2
CCOc1ccc(NC(=O)COC(=O)Cc2ccsc2)cc1 | -3.4 | -1 | 1.2
N=C(N)SCCc1cnc[nH]1 | -2.6 | 2 | 0.7
O=C(CCC(=O)N1CCN(c2ccc(C(F)(F)F)cn2)CC1)c1cccs1 | 0.0 | 2 | -0.7
CCC(=O)[C@@]1(C)[C@H](C)C[C@H]2[C@@H]3CCC4=CC(=O)C=C[C@]4(C)[C@H]3[C@@H](O)C[C@@]21C | 12 | 2 | 0.3

Part of the list above in order of formula weight, high to low:
SMILES | MLL AF4-AF9 inh | Beta cell apopt | A1 inh
CCCCCCSc1ccc([C@@H]2[C@H]3C(=O)N(CC)C(=O)[C@H]3[C@]3(C(=O)OC)CCCCN23)cc1 | 2.2 | 2 | 1.4
O=C(COC(=O)c1cc(S(=O)(=O)N2CCOCC2)ccc1O)Nc1ccc2c(c1)OCO2 | 0.9 | -3 | -0.2
Cc1ccc(NC(=O)C(c2ccccc2)N2CCN(CC(=O)N3CCOCC3)CC2)cc1 (configuration not stated) | -0.9 | -2 | -0.6
O=C(C1=C(O)C(=O)N(c2nc3ccc(Cl)cc3s2)C1c1ccco1)c1ccco1 (configuration not stated) | 2.8 | -4 | -0.3
COc1cccc(CCC(=O)Nc2cccc(S(=O)(=O)N3CCCC3)c2)c1OC | -2.1 | -1 | 1.2
COc1ccccc1C(=O)Nc1ccc(OCC(=O)N2CC(C)CC(C)C2)cc1 (configuration not stated) | -2.0 | 3 | 0.2
CCCCCC(CC(=O)NO)C(=O)NC(C(=O)N1CCCC1CO)C(C)C (configuration not stated) | -4.4 | -5 | 0.2
CC1CCN(C(=O)COC(=O)/C=C/c2ccc(Br)o2)CC1 | -0.1 | -3 | 0.5
O=C(O)c1cc(S(=O)(=O)N2CCCCC2)ccc1N1CCOCC1 | -0.4 | -6 | 0.0
COC(=O)c1cc(O)cc(OC)c1Oc1cc(C)cc(O)c1C(=O)O | -6.0 | 89* | -1.0
Fc1cccc(CN(C2=NCCN2)c2c(Cl)cccc2Cl)c1 | 1.4 | -1 | 0.0
O=C(COC(=O)c1ccco1)NCc1ccc(Cl)cc1Cl | -2.6 | -1 | 0.0
COc1ccccc1C(=O)NC(CCSC)C(=O)NC1CC1 (configuration not stated) | 0.8 | -4 | 0.2
CC1(C)NC(=O)N(c2ccc([N+](=O)[O-])c(C(F)(F)F)c2)C1=O | -1.2 | -4 | -0.2
CCc1sc(C(=O)Nc2ccc3nc(C)sc3c2)cc1C | -5.5 | 3 | -0.9
N#C/C(=C\c1ccc(O)c(O)c1)C(=O)Nc1ccccc1 | 5.4 | -6 | -1.9
Cc1cc2c(cc1S(N)(=O)=O)S(=O)(=O)CCC2 | -6.5 | 3 | 0.3
CNCCC=C1c2ccccc2C=Cc2ccccc21 | 9.9 | 4 | 0.0
N=C(N)SCCc1cnc[nH]1 | -2.6 | 2 | 0.7

Further records:
SMILES | MLL AF4-AF9 inh | Beta cell apopt | A1 inh
CC1Cc2ccccc2N1C(=O)COC(=O)/C=C/c1cccc(F)c1 (configuration not stated) | -5.3 | -3 | 0.2
CC(C)C(=O)C1=Cc2cccc([N+](=O)[O-])c2OC1N1CCOCC1 (configuration not stated) | 0.0 | -15 | -1.2
CSc1ncccc1C(=O)OCC(=O)c1cc(C)n(C)c1C | 3.1 | -4 | -5.9
COc1ccc(NS(=O)(=O)c2cccc(C(=O)O)c2)cc1S(=O)(=O)N1CCOCC1 | -1.8 | -6 | 0.0
C=CC[C@@H](CC(=O)N[C@H](CO)Cc1ccccc1)C(=O)N[C@@H](COC(=O)[C@@H](CC=C)CC(=O)OC(C)(C)C)Cc1c[nH]c2ccccc12 | -0.1 | 5 | 0.9
O=S(=O)(c1ccc(=S)[nH]c1)N1CCCCC1 | -1.3 | -12 | -0.2
O=S(=O)(Nc1cccc(S(=O)(=O)N2CCCC2)c1)c1ccccc1F | -0.6 | -2 | 0.0
COc1ccc([N+](=O)[O-])cc1NC(=O)C(C)OC(=O)Cc1ccc(OC)c(OC)c1 (configuration not stated) | 2.5 | 0 | ?
O=C(c1ccc([N+](=O)[O-])o1)N1CCCCCC1 | -0.8 | -15 | 1.1
Cn1c(SCC(=O)NC2CC2)nnc1-c1ccc(Cl)cc1 | -1.2 | -3 | 0.7
O=C1CC[C@@H](C(=O)O)N1 | -2.2 | -3 | 0.6
Clc1ccc(C(Cn2ccnc2)OCc2c(Cl)cccc2Cl)c(Cl)c1 (configuration not stated) | -0.2 | 28 | 3.4
C=C[C@@H]1c2ccccc2N(S(=O)(=O)c2ccc(C)cc2)[C@H](c2ccc(OC(C)=O)cc2)C1(C#N)C#N | -3.6 | 2 | 0.9
O=C(O)/C(=C\c1c(C(=O)O)[nH]c2cc(Cl)cc(Cl)c12)c1ccccc1 | -0.7 | -8 | ?
COc1ccc(S(=O)(=O)N2CCCCCC2)cc1NC(=O)c1ccccc1S(C)(=O)=O | 1.7 | -4 | 0.6
COc1ccc(OC)c(C(C)NC(=O)C(C)n2cc([N+](=O)[O-])cn2)c1 (configuration not stated) | 0.5 | 0 | 0.9
CN/C(=C/[N+](=O)[O-])NCCSCc1csc(CN(C)C)n1 | 7.1 | -6 | 0.4
Cc1ccccc1NC(=O)Cc1nc(CN(C)CC(=O)Nc2cccc(F)c2)cs1 | -1.8 | 3 | 0.1
CC(C)CCN1C(=O)c2ccc(C(=O)OCC(=O)N(CC(C)C)C3CCS(=O)(=O)C3)cc2C1=O (configuration not stated) | 4.3 | 3 | -1.4
CC(NC(=O)COC(=O)CNC(=O)C1CCCCC1)c1ccccc1 (configuration not stated) | -3.7 | -1 | -0.5
COc1ccc(S(=O)(=O)N2CCCCC2)cc1NC(=O)CNc1ccc(F)cc1C | -1.2 | 9 | -0.2
CC1=C(CC(=O)O)c2cc(F)ccc2C1=Cc1ccc(S(C)(=O)=O)cc1 | -1.5 | 2 | 0.4
C=CCN1C(=O)c2ccc(C(=O)OCC(=O)N(CC)C3CCS(=O)(=O)C3)cc2C1=O (configuration not stated) | -3.4 | 2 | 0.8
CN1CCN(CCC=C2c3ccccc3Sc3ccc(S(=O)(=O)N(C)C)cc32)CC1 | 17 | -7 | -1.8
C[C@H]1[C@H](NC(=O)C(=NOC(C)(C)C(=O)O)c2csc(N)n2)C(=O)N1S(=O)(=O)O | 1.6 | -6 | 0.5
CC1CC(C)CN(C(=O)COC(=O)c2nccnc2N)C1 (configuration not stated) | -1.4 | -2 | -0.6
CC(C)N(CCC(=O)c1ccc2ccccc2c1)Cc1ccccc1 | -17 | 65 | 0.6
CCC(C)(C)C1CCC2(CC1)NC(=O)N(CC(=O)NCCc1c[nH]c3ccccc13)C2=O (configuration not stated) | 2.8 | 1 | -1.7
CSc1nc(N)nc2c1ncn2CC(=O)Nc1ccc(C)c(C)c1 | -0.9 | 21 | -0.6
O=c1[nH]c2cc(C(F)(F)F)ccc2n1-c1cc(C(F)(F)F)ccc1O | -0.1 | 3 | 0.5
COc1ccccc1CC(=O)N1CCN(S(=O)(=O)c2ccccc2F)CC1 | -6.7 | -2 | 0.1
CCSC(=N)N | -2.9 | -46 | -0.5
COCc1nc2c([nH]1)c(=O)n(C)c(=O)n2CC(C)C | 7.1 | 3 | 0.2
CC1(C)C(=O)Nc2ccccc2N1C(=O)COC(=O)CSc1ccc(Cl)cc1 | -2.0 | -7 | 0.0
Cc1cc(C)c(NC(=O)COc2cccnc2[N+](=O)[O-])c(C)c1 | -0.2 | -5 | -1.4
COc1ccc(C[C@](C)(N)C(=O)O)cc1OC | 7.3 | -17 | 0.6
